# RecA splice inh: inhibitors of M. tuberculosis RecA intein splicing. P9WHJ3. cell-free RecA intein splicing, fluorescence. inhibition, %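 (about 9 µM by stock and volumes)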. 0.75% of 290,000 active. AID 2221; in the data active means inhibition above about 30%;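 further: 0% = vehicle wells and 100% = reference inhibitor control wells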
# Target sequence (P9WHJ3 whole entry, looked up, canonical isoform): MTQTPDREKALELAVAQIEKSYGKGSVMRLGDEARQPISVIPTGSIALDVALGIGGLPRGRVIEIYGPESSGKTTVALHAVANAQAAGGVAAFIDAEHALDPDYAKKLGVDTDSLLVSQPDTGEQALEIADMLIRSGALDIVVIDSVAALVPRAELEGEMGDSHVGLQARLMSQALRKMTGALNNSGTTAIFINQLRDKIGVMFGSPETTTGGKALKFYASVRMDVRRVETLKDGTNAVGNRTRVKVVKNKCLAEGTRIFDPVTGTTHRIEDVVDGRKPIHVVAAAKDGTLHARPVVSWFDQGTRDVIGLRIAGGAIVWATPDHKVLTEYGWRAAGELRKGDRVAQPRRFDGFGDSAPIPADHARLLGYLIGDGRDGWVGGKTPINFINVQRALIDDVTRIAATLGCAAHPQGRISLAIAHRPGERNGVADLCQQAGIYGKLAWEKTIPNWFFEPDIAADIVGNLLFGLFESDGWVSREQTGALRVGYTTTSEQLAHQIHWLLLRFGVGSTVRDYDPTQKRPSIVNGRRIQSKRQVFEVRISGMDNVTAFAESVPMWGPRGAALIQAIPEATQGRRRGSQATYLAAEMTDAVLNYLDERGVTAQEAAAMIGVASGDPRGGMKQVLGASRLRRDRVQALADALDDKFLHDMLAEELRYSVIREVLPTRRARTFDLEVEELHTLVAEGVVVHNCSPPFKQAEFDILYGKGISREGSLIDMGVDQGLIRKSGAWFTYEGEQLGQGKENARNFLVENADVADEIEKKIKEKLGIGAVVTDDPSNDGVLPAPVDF
# Mtb bLac sens: beta-lactam sensitization of Mtb H37Rv | M. tuberculosis H37Rv growth with meropenem, percent inhibition; hits of this screen are not shown here | inhibition, % at 25 µM | 0.27% of 330,000 active | AID 434955;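 active means about 74% or more and at least 40 points above the plate without the antibiotic, then above 30% in a dose series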;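 further: growth measured after seven days incubation then overnight dye step; 0% = bacteria only wells and 100% = bacteria with antibiotic; twin plates without the antibiotic show which effects depend on it; some results filed as inactive read as strong as hits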
# Arbovirus anti: arbovirus infection inhibition; inhibition, % at 10 µM; AID 1251; 0.37% of 200,000 active; arbovirus infection cell-based antiviral screen;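 active means inhibition from about 30%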;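 further: bluetongue infection of BSR cells; cell survival read as ATP light after 72 h; 0% = infected wells without compound and 100% = uninfected wells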
# YopH PTP inh: blocks Yersinia enterocolitica YopH tyrosine phosphatase | 0.16% of 140,000 active | fluorescence Ex485/Em525 | AID 898 | inhibition, %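 (about 10 µM by stock and volumes)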;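 active means inhibition of 50% or more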;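 further: controls were vehicle for no effect and minimum signal wells for full effect; inactives centre near -20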
# Mtb growth: M. tuberculosis H37Rv growth inhibitors, H37Rv strain (AID 1626); M. tuberculosis H37Rv growth inhibition; higher % means a stronger effect; 0.95% of 220,000 active; inhibition, % at 10 µM; hits with a dose series show IC50 in µM;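 active means confirmed in a dose series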;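 further: bacteria incubated seven days before Alamar blue readout; 0% = bacteria only wells and 100% = bacteria with antibiotic wells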
# Numbers without * were called inactive; / = no result given.
SMILES,RecA splice inh,Mtb bLac sens,Arbovirus anti,YopH PTP inh,Mtb growth
FC(F)(F)c1cnc(-c2cnc(-c3cccnc3)nc2)c(Cl)c1,4.6,-3,0,/,6%
O=[N+]([O-])c1ccc(C(=S)N2CCN(Cc3ccccc3)CC2)cc1,2.2,-7,3,-38,1%
CC(/C=N/n1c(COc2ccccc2)n[nH]c1=S)=C\c1ccco1,10,-6,/,/,1%
CN(C(=O)CSc1nc2ccc([N+](=O)[O-])cc2s1)C1CCS(=O)(=O)C1 (stereo not drawn),1.5,-5,/,/,-3%
O=C(Cc1ncc(C(F)(F)F)cc1Cl)NC1CC1,/,-1,-3,/,0%
O=P(Nc1cccnc1)(Oc1ccccc1Cl)Oc1ccccc1Cl,8.3,-4,0,-35,-2%
N#Cc1c(N)n[nH]c1Cc1cccc2ccccc12,0.8,2,/,/,-8%
COc1cc(C(=O)NCCC(=O)NCCN2CCOCC2)cc(OC)c1OC,-4.2,-7,-5,-49,5%
COc1ccc(-n2nc(C(=O)NCC(=O)N3CCCCC3)c3ccccc3c2=O)cc1,0.6,0,/,/,/
CCCCOC(=O)/C=C\C(=O)NC(N)=O,-0.5,-3,/,/,4%
CCC(=O)Nc1cc2c(C)cc(=O)oc2cc1C,0.7,-10,1,-7,-13%
Cc1cccc(C(=O)N=c2c(C#N)cc3c(=O)n4cccc(C)c4nc3n2Cc2ccco2)c1,-1.6,-4,-11,4,-9%
CC(=O)c1ccccc1C(=O)N1CCCC(C(=O)c2ccc(C(F)(F)F)cc2)C1 (stereo not drawn),-2.8,-6,/,/,/
O=C(COC(=O)/C=C/c1ccc([N+](=O)[O-])cc1)NCC1CCCO1 (stereo not drawn),-1.8,-1,0,/,-1%
C[C@@H]1C2C[C@@]34COC(=O)C3=CC=C[C@H]4[C@@]13C[C@H](c1ccoc1)O[C@@H]3O2,/,-8,1,-21,-10%
COc1ccc(N2CCN(CC(=O)NC(=O)NCc3ccco3)CC2)cc1,-2.4,1,8,-3,-2%
Cc1cccc(NC(=O)CC23CC4CC(C2)CC(n2nnc(C)n2)(C4)C3)c1,1.0,-2,0,-18,4%
COc1cc(OC)cc(C(=O)NNC(=O)c2ccc(-n3cncn3)c([N+](=O)[O-])c2)c1,-1.6,-8,/,/,/
O=C1C2C3C=CC(C3)C2C(=O)N1c1ccncc1 (stereo not drawn),0.5,-5,2,-20,/
O=C(NCc1ccco1)C(C(=O)c1ccc(F)cc1)n1ccccc1=O (stereo not drawn),-2.3,-2,5,-46,-4%
CCN(CC)C(=O)CSc1nnc(CCN)o1,/,-5,-3,-21,-6%
CCOc1cccc(OCCCNCCCOC)c1,-4.9,14,-2,-6,-2%
Cc1cc(C)nc(NS(=O)(=O)c2ccc(NC(=O)CN3C(=O)c4ccccc4C3=O)cc2)n1,-2.0,-28,0,-52,/
CC(=O)N1CC2(NC(=O)c3ccccc3N2)c2ccccc21 (stereo not drawn),-3.7,1,-1,/,/
N/C(=N\OC(=O)c1ccc(Cl)cc1)c1cccnc1,-0.2,17,-2,-6,/

# An excerpt from above with just RecA splice inh and YopH PTP inh.
structure	RecA splice inh	YopH PTP inh
Cc1cccc(C(=O)N=c2c(C#N)cc3c(=O)n4cccc(C)c4nc3n2Cc2ccco2)c1	-1.6	4
O=C(NCc1ccco1)C(C(=O)c1ccc(F)cc1)n1ccccc1=O (stereo not drawn)	-2.3	-46
C[C@@H]1C2C[C@@]34COC(=O)C3=CC=C[C@H]4[C@@]13C[C@H](c1ccoc1)O[C@@H]3O2	/	-21

# (listing goes on)
SMILES,RecA splice inh,Mtb bLac sens,Arbovirus anti,YopH PTP inh,Mtb growth
Cc1ccc(-n2nc3ccc(NC(=O)c4ccc5c(c4)OCO5)cc3n2)cc1,-1.3,-14,-2,-11,4%
CCCc1nnc(SCC(=O)Nc2ccc(NC(C)=O)cc2)n1-n1cccc1,-0.9,-11,/,/,/
O=C(NCC(=O)N1CCN(S(=O)(=O)/C=C/c2ccccc2)CC1)c1ccccc1F,-0.8,-4,9,/,7%
c1ccc(N2CCN(C3CC4CCC3C4)CC2)cc1 (stereo not drawn),1.3,8,/,/,/
COCc1ccc(CN2CCC(n3nccc3NC(=O)CCCc3ccccc3)CC2)o1,0.2,-8,/,/,/
CC1CCN(C(=O)c2ccc3ccccc3c2)CC1,-3.0,-10,/,/,/
Cc1ccc(C(C(=O)NC2CCCCC2)N(C(=O)c2csnn2)C2CCCC2)o1 (stereo not drawn),4.0,-11,1,-3,-15%
CCOC(=O)c1cnc2c(CC)cccc2c1NCCN1CCOCC1,2.2,-4,/,/,/
O=C(OCC(O)C(O)COC(=O)c1ccccc1)c1ccccc1 (stereo not drawn),2.1,-10,2,-43,1%
COc1ccc(/C=N/NS(=O)(=O)c2ccccc2)cc1OC,0.3,2,/,/,/
Cc1ccc(NC(=O)COC(=O)CCc2ccccc2)c(Cl)c1,-1.2,-4,/,/,/
COc1ccc(CCNC(=O)c2c(C)noc2C)cc1,1.1,5,2,-19,-13%
COc1ccc2[nH]c(=O)c(CN(C(=O)c3cccnc3)c3ccc(C)cc3C)cc2c1,-2.1,-4,/,/,-4%
CCOc1ccccc1NC(=O)c1ccccc1N(C)S(=O)(=O)c1ccc(C)cc1,4.2,2,/,/,/
CCc1ccc(NC(=O)C2CCN(S(=O)(=O)c3ccc4c(c3)NC(=O)C(C)S4)CC2)cc1 (stereo not drawn),0.3,69,/,/,/
CCO[C@@H]1OC(C(=O)N2CCN(Cc3ccccc3)CC2)=C[C@H](c2coc3ccccc3c2=O)[C@H]1CCCO,2.0,3,-13,/,4%
COc1cc2c(C(=O)N3CCN(c4cccc(Cl)c4)CC3)cn(C)c(=O)c2cc1OC,-1.7,-7,-20,-6,-11%
CCOC(=O)C1(Cc2cccc(Cl)c2)CCCN(C(=O)c2cc(C)on2)C1 (stereo not drawn),1.7,-6,/,/,/
Cc1ccc2c(c1)C(C)CC(C)(C)N2C(=O)CN1CCN(C)CC1 (stereo not drawn),-2.9,-4,/,/,/
Cc1c(C(=O)c2ccccc2)c2ccccn2c1CCc1ccccn1,/,0,-2,/,-10%
COc1ccccc1NC(=O)C(=O)N(c1cccnc1)C(C(=O)NC(C)(C)C)c1ccccc1F (stereo not drawn),-0.4,-1,-8,/,-1%
N#CCCN(Cc1ccccc1)C(=O)Nc1ccc2c(c1)CCO2,-0.9,2,/,/,-5%
Cc1nnc(N/N=C/c2c[nH]c3ccccc23)[nH]c1=O,/,0,/,/,-4%
Cc1cccc(S(=O)(=O)N2CN(CC3CCCO3)c3nc4ccccc4nc32)c1 (stereo not drawn),-1.1,2,/,/,/
O=C(c1ccncc1)c1nccn1-c1ccccn1,-0.5,3,12,-27,-5%

# A different layout for part of the listing above.
smiles	RecA splice inh	Mtb bLac sens	Arbovirus anti	YopH PTP inh	Mtb growth
O=C(NCC(=O)N1CCN(S(=O)(=O)/C=C/c2ccccc2)CC1)c1ccccc1F	-0.8	-4	9	/	7%
COc1ccc2[nH]c(=O)c(CN(C(=O)c3cccnc3)c3ccc(C)cc3C)cc2c1	-2.1	-4	/	/	-4%

# As a working copy, 7 of the compounds above.
SMILES,RecA splice inh,Mtb bLac sens,Arbovirus anti,YopH PTP inh,Mtb growth
Cc1ccc(-n2nc3ccc(NC(=O)c4ccc5c(c4)OCO5)cc3n2)cc1,-1.3,-14,-2,-11,4%
CCCc1nnc(SCC(=O)Nc2ccc(NC(C)=O)cc2)n1-n1cccc1,-0.9,-11,/,/,/
O=C(NCC(=O)N1CCN(S(=O)(=O)/C=C/c2ccccc2)CC1)c1ccccc1F,-0.8,-4,9,/,7%
c1ccc(N2CCN(C3CC4CCC3C4)CC2)cc1 (stereo not drawn),1.3,8,/,/,/
COCc1ccc(CN2CCC(n3nccc3NC(=O)CCCc3ccccc3)CC2)o1,0.2,-8,/,/,/
CC1CCN(C(=O)c2ccc3ccccc3c2)CC1,-3.0,-10,/,/,/
Cc1ccc(C(C(=O)NC2CCCCC2)N(C(=O)c2csnn2)C2CCCC2)o1 (stereo not drawn),4.0,-11,1,-3,-15%

# New compounds follow.
SMILES,RecA splice inh,Mtb bLac sens,Arbovirus anti,YopH PTP inh,Mtb growth
CC(=O)c1sc(-c2ccc(F)cc2)cc1NS(=O)(=O)c1ccc(C)cc1,5.1,4,/,/,5%
O=C1CC(C(=O)N2CCN(c3ccccn3)CC2)CN1Cc1ccccc1Cl (stereo not drawn),-0.9,2,/,/,/
Cc1ccc(Nc2nc(CSc3nnc(-c4ccc(F)cc4)n3C)cs2)cc1,2.7,37,12,-2,11%
COc1cccc(NC(=O)c2cnc(SCC(=O)NCc3ccc4c(c3)OCO4)n(C)c2=O)c1,0.8,0,/,/,/
CCc1nn(CCCC(=O)N(C)Cc2ccccc2)c(=O)c2cc3occc3n12,3.8,-2,/,/,/
COC(=O)[C@H](CC(C)C)NC(=O)NCCC1=CCCCC1,1.0,96,/,/,5%
CCN(CC)CCOC(=O)c1cccc(OC)c1,2.4,-18,0,23,-4%
Cc1cc2cc(CN(CC3CCCO3)C(=S)NCc3ccco3)c(=O)[nH]c2cc1C (stereo not drawn),-3.0,5,7,-16,2%
COc1ccc([N+](=O)[O-])cc1N(CC(=O)O)S(C)(=O)=O,3.0,-1,7,/,0%
COc1ccc(/C=C/C(=O)c2ccc(Cl)cc2)c(OC)c1,0.8,97,8,-35,7%
COc1ccc(N2CCN(C(=O)c3cc(C)oc3C)CC2)cc1,-3.6,-5,/,/,/
O=c1[nH]c(=O)n(C2CCCO2)cc1Br (stereo not drawn),1.3,-7,17,-24,-7%
CCOc1ccccc1C1CC(=O)NC2=C1C(=O)CC(C)(C)C2 (stereo not drawn),1.7,-13,2,-38,-3%
COc1cccc2cc(C(=O)OCC(=O)NCc3ccc4c(c3)OCO4)c(=O)oc12,-0.1,0,/,/,-6%
CCN(CC)CCNC(=O)C(=O)NCC1OCCN1S(=O)(=O)c1cccs1 (stereo not drawn),0.9,3,/,/,/
CCc1ccccc1N1C(=O)C2C3C=CC(CC3)C2C1=O (stereo not drawn),0.9,-6,/,/,/
Clc1ccc(/C=N/NC2=Nc3cccc4cccc2c34)cc1,-2.7,100,-17,-14,3%
Cc1ccc(C(=O)CNc2cccc(Cl)c2)cc1,1.7,2,-5,-26,-6%
C/C(=C/C(=O)N1CCc2ccccc21)C(=O)O,-2.5,-1,2,6,6%
CCOc1ccc(NC(=O)COc2ccc(C(=O)N3CCC(C(N)=O)CC3)cc2OC)cc1,-2.0,0,/,/,/
CCOC(=O)c1c(S(=O)(=O)N(C)C2CCCCC2)c(C)n(C)c1C,3.6,-7,/,/,/
CCOc1ccc(N2C(=O)CC(Cc3cc(C)cc(C)c3)C2=O)cc1 (stereo not drawn),-0.2,-7,/,/,/
Fc1cccc(NC(=S)NCc2ccccc2Cl)c1,6.2,0,/,/,-1%
Cc1ccc(/C=C/C(=O)O)cc1S(=O)(=O)NCCCO,-3.2,12,9,-39,-6%
COc1ccc(-n2cc(CN3CCC(OC)CC3)c(-c3cccc(F)c3)n2)cc1,-0.2,12,-6,/,-2%

# Whole records from above.
# CCN(CC)CCOC(=O)c1cccc(OC)c1 is listed as RecA splice inh: 2.4; Mtb bLac sens: -18; Arbovirus anti: 0; YopH PTP inh: 23; Mtb growth: -4%
# Cc1cccc(NC(=O)CC23CC4CC(C2)CC(n2nnc(C)n2)(C4)C3)c1 is listed as RecA splice inh: 1.0; Mtb bLac sens: -2; Arbovirus anti: 0; YopH PTP inh: -18; Mtb growth: 4%

# (further entries)
SMILES,RecA splice inh,Mtb bLac sens,Arbovirus anti,YopH PTP inh,Mtb growth
N#CCCN(C(=O)COC(=O)CNC(=O)C12CC3CC(CC(C3)C1)C2)c1ccccc1,-0.4,1,/,/,/
CC(=O)Nc1cccc(NC(=O)C2CCCN2C(=O)Nc2cccc(F)c2)c1 (stereo not drawn),-3.1,-4,-4,-39,-4%
Cc1cc(Oc2ccccc2)nc(SCC(=O)Nc2ccc(Cl)cc2Cl)n1,0.8,-3,-3,-3,7%
Cc1cccc(N(Cc2ccccc2)C(=O)c2ccccc2S(C)(=O)=O)c1,3.7,-4,/,/,/
COc1ccc(Br)cc1C(=O)NC(=S)Nc1c(C)n(C)n(-c2ccccc2)c1=O,1.1,-2,/,/,/
COc1cc(NC(=O)Cc2cccs2)c(C(=O)O)cc1OC,3.2,10,-2,/,11%
CC(C)C(=O)Nc1ccc(NC(=O)c2ccc3c(c2)OCO3)cc1,-0.3,7,/,/,/
CC(=O)Nc1ccccc1C(=O)C(=O)Nc1ccccc1,-0.6,-2,-1,-11,2%
CSCCC(NS(=O)(=O)c1cc(C(=O)O)ccc1Cl)C(=O)O (stereo not drawn),0.5,8,2,/,1%
Cc1cccc(C)c1NC(=O)CN(C)C(=O)/C=C/c1cccs1,0.5,-4,1,-31,0%
Cc1nn(C)c(C)c1/C=C/C(=O)O,0.7,1,11,/,2%
CC(N)Cc1c[nH]c2c1ccc1ccccc12 (stereo not drawn),0.7,8,/,/,/
COc1cc([C@@H]2c3cc4c(cc3[C@@H](OC)[C@H]3COC(=O)[C@H]23)OCO4)cc(OC)c1O,-0.3,-7,/,/,-6%
Cc1c(Cl)cccc1NC(=S)Nc1ccc2[nH]c(=O)[nH]c2c1,-7.4,23,/,/,1%

# These rows are one share of the data; rates above refer to the full screens.
